RecA splice inh: Mtb RecA intein splicing inhibition; P9WHJ3; cell-free RecA intein splicing, fluorescence; inhibition, %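 (about 9 µM by stock and volumes)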; 0.75% of 290,000 active; AID 2221; in the data active = inhibition above about 30%; inconclusive = no clear call, values can overlap the other calls;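 note: 0% = vehicle wells and 100% = reference inhibitor control wells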
Target sequence (P9WHJ3 whole entry, looked up, canonical isoform): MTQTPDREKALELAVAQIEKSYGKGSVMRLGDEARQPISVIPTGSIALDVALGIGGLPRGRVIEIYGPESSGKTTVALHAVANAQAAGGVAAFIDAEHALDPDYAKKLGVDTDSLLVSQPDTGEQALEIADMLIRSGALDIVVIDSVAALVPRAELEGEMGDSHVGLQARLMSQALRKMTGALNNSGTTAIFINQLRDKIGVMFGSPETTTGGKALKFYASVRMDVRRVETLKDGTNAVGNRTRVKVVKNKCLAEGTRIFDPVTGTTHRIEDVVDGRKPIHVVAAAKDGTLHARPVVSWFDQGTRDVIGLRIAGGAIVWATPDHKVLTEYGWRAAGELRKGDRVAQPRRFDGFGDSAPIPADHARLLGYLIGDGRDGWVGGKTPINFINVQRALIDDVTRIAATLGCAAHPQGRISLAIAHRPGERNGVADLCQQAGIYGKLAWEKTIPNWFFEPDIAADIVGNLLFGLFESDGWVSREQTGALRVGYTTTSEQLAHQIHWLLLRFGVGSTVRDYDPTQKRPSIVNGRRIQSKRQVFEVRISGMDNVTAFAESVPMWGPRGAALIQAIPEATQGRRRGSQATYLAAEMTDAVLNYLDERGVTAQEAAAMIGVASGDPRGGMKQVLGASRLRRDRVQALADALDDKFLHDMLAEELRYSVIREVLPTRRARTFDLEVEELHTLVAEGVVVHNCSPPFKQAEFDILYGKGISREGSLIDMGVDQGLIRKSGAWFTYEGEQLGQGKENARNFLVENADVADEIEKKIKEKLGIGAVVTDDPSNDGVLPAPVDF
Mtb growth: M. tuberculosis H37Rv growth inhibitors, H37Rv strain (AID 1626); M. tuberculosis H37Rv growth inhibition; higher % means a stronger effect; one-dose inhibition, % at 10 µM; IC50 in µM for titrated hits; 0.95% of 220,000 active;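 active = confirmed in a dose series; inconclusive = inhibition above 80% but not taken into the dose series; inactive = below 80% or under 30% at every dose of the series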;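 note: bacteria incubated seven days before Alamar blue readout; 0% = bacteria only wells and 100% = bacteria with antibiotic wells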
Mtb betalactam: beta-lactam sensitization of Mtb H37Rv; M. tuberculosis H37Rv growth with meropenem, percent inhibition; hits of this screen are not shown here; inhibition, % at 25 µM; 0.27% of 330,000 active; AID 434955;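 active = about 74% or more and at least 40 points above the plate without the antibiotic, then above 30% in a dose series; inconclusive = first-round hits that could not be retested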;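 note: growth measured after seven days incubation then overnight dye step; 0% = bacteria only wells and 100% = bacteria with antibiotic; twin plates without the antibiotic show which effects depend on it; some results filed as inactive read as strong as hits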
YopH PTP inh: blocks Yersinia enterocolitica YopH tyrosine phosphatase. fluorescence Ex485/Em525. inhibition, %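 (about 10 µM by stock and volumes)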. 0.16% of 140,000 active. AID 898;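 active = inhibition of 50% or more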;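 note: controls were vehicle for no effect and minimum signal wells for full effect; inactives centre near -20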
Arbovirus anti: arbovirus infection inhibition; 0.37% of 200,000 active; arbovirus infection cell-based antiviral screen; inhibition, % at 10 µM;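 active = inhibition from about 30%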;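 note: bluetongue infection of BSR cells; cell survival read as ATP light after 72 h; 0% = infected wells without compound and 100% = uninfected wells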
Arbovirus anti repeat: second read-out of Arbovirus anti, no call of its own (marks repeat the call); inhibition, %; measured here: 10K subset replicate screen; many hits read low in the repeat;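 first of two repeat runs on a subset; 0% = infected and 100% = uninfected wells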
The depositor's hits bear a star; ? = inconclusive; . = no result given. A portion of the library. The share of hits here may be higher or lower than overall.

SMILES	RecA splice inh	Mtb growth	Mtb betalactam	YopH PTP inh	Arbovirus anti	others
CC(CC(=O)N1CCc2ccccc21)S(=O)(=O)c1ccc2c(c1)NC(=O)CO2 (centres undefined)	-0.5	.	9.9	.	.
CCOP(=O)(OCC)C(Nc1ccccn1)c1ccc(F)cc1 (centres undefined)	-1.1	4.3%	-2.9	-19.2	3.5
Cc1ccc(NC(=O)CN(c2cc(C)cc(C)c2)S(=O)(=O)c2c(C)noc2C)nc1	6.5	-8.6%	-3.3	-19.1	9.7	Arbovirus anti repeat=-6.6
O=C1NC(=S)N(c2ccccc2F)C(=O)/C1=C\c1cccs1	-0.1	-4.2%	-2.7	-5.0	5.3
Cc1ccc(N2CC(C(=O)Nc3cccnc3)CC2=O)cc1 (centres undefined)	-0.2	-0.5%	2.2	-42.4	5.6
C/C(=N\NC(=O)c1nnn(-c2nonc2N)c1CN1CCCCCC1)c1ccc(Br)cc1	-1.1	.	-0.8	.	.
COc1ccc([C@@H]2[C@@H]3C(=O)N(C(C)(C)C)C(=O)[C@@H]3[C@]3(C)C(=O)N(c4ccccc4)C(=O)N23)cc1	2.2	.	-1.8	.	.
O=C(O)c1cccc(S(=O)(=O)Nc2ccc(O)cc2Sc2nc3ccccc3s2)c1	-3.8	-0.2%	-0.2	-23.3	1.4
O=C(Nc1ccc(S(=O)(=O)NCCc2ccccc2)cc1)c1ccncc1	-0.8	.	-17.4	.	.
c1ccc(-c2nc3ccccc3nc2N2CCOCC2)cc1	0.5	-1.9%	2.7	-30.3	3.3
CN1C(=O)CC(C(=O)O)SC1=Nc1cccc(C(F)(F)F)c1 (centres undefined)	-0.7	-5.1%	-1.2	-16.6	-0.6
Cn1nc(C(C)(C)C)c([N+](=O)[O-])c1C(=O)NC(C)(C)C	3.0	0.2%	1.5	-16.0	3.8
COc1ccc2c(c1)CCCC21NC(=O)N(CC(N)=O)C1=O (centres undefined)	-1.4	-0.9%	0.7	-34.4	2.0
CN(C)S(=O)(=O)c1cccc(NC(=O)c2cc(-c3cccs3)nc3ccccc23)c1	2.2	7.3%	?	-13.6	3.8
CCCCCn1c(CCNC(=O)CCC)nc2ccccc21	-0.1	5.3%	-1.9	-6.5	4.3	Arbovirus anti repeat=-1.1
CCOc1ccc(N(C(=O)Nc2ccccc2)C2=NCCC2)cc1	10.5	?	94.1	8.7	2.9
Cc1cc(NC(=O)c2cc3n(n2)C(C(F)(F)F)CC(c2ccco2)N3)n(-c2ccccc2)n1 (centres undefined)	0.5	9.3%	45.2	-23.2	-28.7
CCOc1cc(/C=N/NC(=S)Nc2ccccc2C(F)(F)F)ccc1OCC(=O)N1CCOCC1	2.3	10.2%	-4.9	-20.5	-2.7
Cc1ccc(C(=O)COC(=O)CN2C(=O)C3CC=CCC3C2=O)cc1[N+](=O)[O-] (centres undefined)	5.7	.	-3.9	.	.
COc1ccccc1NC(=O)/C(C#N)=C/c1c(C)nn(-c2ccc(F)cc2)c1Cl	4.5	7.5%	3.2	-49.2	-13.8
COc1ccccc1C(=O)Nc1cccc(Oc2c(F)c(F)c(F)c(F)c2F)c1	10.1	7.2%	-3.7	.	.
O=C(Nc1ccccn1)c1ccco1	-1.0	-13.2%	1.4	2.2	4.4
COc1ccc(-c2cc(C(=O)Nc3ccc(S(=O)(=O)Nc4ncccn4)cc3)c3ccccc3n2)cc1	.	16.0%	?	.	.
CCN(CC(=O)Nc1ccc(NC(C)=O)cc1)C(=O)c1cccc(Oc2ccccc2)c1	3.0	.	-7.6	.	.
COC(=O)c1cc(S(=O)(=O)Nc2cccc(OC)c2)cn1C	4.2	.	-7.4	.	.

Entries shown so far containing a tert-butyl group, in the order listed:
SMILES	RecA splice inh	Mtb growth	Mtb betalactam	YopH PTP inh	Arbovirus anti	others
COc1ccc([C@@H]2[C@@H]3C(=O)N(C(C)(C)C)C(=O)[C@@H]3[C@]3(C)C(=O)N(c4ccccc4)C(=O)N23)cc1	2.2	.	-1.8	.	.
Cn1nc(C(C)(C)C)c([N+](=O)[O-])c1C(=O)NC(C)(C)C	3.0	0.2%	1.5	-16.0	3.8

Four compounds drawn at random from those above, as already listed:
SMILES	RecA splice inh	Mtb growth	Mtb betalactam	YopH PTP inh	Arbovirus anti	others
Cc1ccc(N2CC(C(=O)Nc3cccnc3)CC2=O)cc1 (centres undefined)	-0.2	-0.5%	2.2	-42.4	5.6
COc1ccc2c(c1)CCCC21NC(=O)N(CC(N)=O)C1=O (centres undefined)	-1.4	-0.9%	0.7	-34.4	2.0
CN(C)S(=O)(=O)c1cccc(NC(=O)c2cc(-c3cccs3)nc3ccccc23)c1	2.2	7.3%	?	-13.6	3.8
O=C1NC(=S)N(c2ccccc2F)C(=O)/C1=C\c1cccs1	-0.1	-4.2%	-2.7	-5.0	5.3

Filtered by structure, the compounds so far with a CF3 group.
SMILES	RecA splice inh	Mtb growth	Mtb betalactam	YopH PTP inh	Arbovirus anti	others
CN1C(=O)CC(C(=O)O)SC1=Nc1cccc(C(F)(F)F)c1 (centres undefined)	-0.7	-5.1%	-1.2	-16.6	-0.6
Cc1cc(NC(=O)c2cc3n(n2)C(C(F)(F)F)CC(c2ccco2)N3)n(-c2ccccc2)n1 (centres undefined)	0.5	9.3%	45.2	-23.2	-28.7
CCOc1cc(/C=N/NC(=S)Nc2ccccc2C(F)(F)F)ccc1OCC(=O)N1CCOCC1	2.3	10.2%	-4.9	-20.5	-2.7

Back to the main list, starting 4 compounds before the break.
SMILES	RecA splice inh	Mtb growth	Mtb betalactam	YopH PTP inh	Arbovirus anti	others
O=C(Nc1ccccn1)c1ccco1	-1.0	-13.2%	1.4	2.2	4.4
COc1ccc(-c2cc(C(=O)Nc3ccc(S(=O)(=O)Nc4ncccn4)cc3)c3ccccc3n2)cc1	.	16.0%	?	.	.
CCN(CC(=O)Nc1ccc(NC(C)=O)cc1)C(=O)c1cccc(Oc2ccccc2)c1	3.0	.	-7.6	.	.
COC(=O)c1cc(S(=O)(=O)Nc2cccc(OC)c2)cn1C	4.2	.	-7.4	.	.
COc1ccc(NC(=O)C2CC(=O)N(c3ccccc3Cl)C2)c(OC)c1 (centres undefined)	0.2	.	-0.2	.	.
C=CCOc1ccc(C2C(C(=O)c3ccc(C)o3)=C(O)C(=O)N2Cc2cccnc2)cc1 (centres undefined)	1.2	.	4.7	.	.
CCn1c(SCC(=O)N2CCCc3ccccc32)nnc1-c1cccs1	3.0	-5.5%	1.4	-27.7	1.4
CN(C(=O)CCN1C(=O)S/C(=C\c2ccccc2)C1=O)C1CCS(=O)(=O)C1 (centres undefined)	2.2	.	-2.6	.	.
NC(=O)c1ccc[n+](Cc2ccc(-c3ccccc3)cc2)c1	3.3	.	4.4	.	.
CN1CCN(C(=O)c2cc3nc(-c4ccco4)cc(C(F)(F)F)n3n2)CC1	-8.3	-0.5%	-4.3	.	6.8
CN(C)S(=O)(=O)c1cccc(NC(=O)COC(=O)c2cc(=O)c3ccccc3o2)c1	-1.2	-5.8%	-1.5	.	.
O=C(N/N=C/c1ccc(OC(=O)c2cccs2)cc1)c1cccc(F)c1	-0.2	45.4%	87.9	9.8	-8.3
Cc1ccc(S(=O)(=O)Oc2cc(N)c3c(n2)CCC3)cc1	-2.0	-4.8%	10.8	.	.
O=C(NC(=S)Nc1ccccc1Br)c1cccnc1	0.5	.	5.3	.	.
CCC/C(O)=C1\C(=O)CC(c2ccccc2)CC1=NCCc1c(C)[nH]c2ccc(C)cc12 (centres undefined)	-5.6	11.3%	4.9	-9.7	-7.4
O=c1c2ccccc2oc2cc(NCCCN3CCOCC3)ccc12	-494.7	.	-3.8	.	.
CCOc1ccc(C(=O)OCC(=O)N2CCCC2)cc1OCC	-3.4	.	-6.7	.	.
Cc1ccc(C(=O)CCC(=O)Nc2cccnc2)cc1C	1.5	-9.6%	8.6	-17.2	6.5
O=C(Nc1ccc2c(c1)ncn2C1CCCCC1)c1ccco1	-0.9	2.2%	-9.8	-29.4	-2.3
CC1=C(C(=O)OCCOC(C)C)C(c2cccc3ccccc23)NC(=O)N1 (centres undefined)	-0.7	.	-0.9	.	.
Cc1onc(-c2c(Cl)cccc2Cl)c1C(=O)Nc1ccc(N2CCOCC2)cc1	1.3	-9.1%	-11.2	.	.
Cc1ccccc1NS(=O)(=O)c1ccc(C(=O)N2CCCC2)cc1	0.7	.	-11.5	.	.
Cc1cc(N2CCCCC2)nc2c(C)cccc12	0.0	0.3%	14.4	.	7.9
CC1CCCCN1C(=O)CCNC(=O)Cn1cnc2ccccc2c1=O (centres undefined)	0.2	.	-4.9	.	.
Cc1cc(C)c2nc(SCC(=O)NC(=O)c3cccn3C)cc(C)c2c1	-1.2	0.2%	-0.1	.	-7.3
CCOc1ccc(C(C)=O)cc1Cc1c(O)nc(N)[nH]c1=O	-3.7	-1.9%	65.2	-15.1	-0.8
O=C(N=Nc1c(O)[nH]c2ccccc12)c1ccccc1NS(=O)(=O)c1cccs1	-0.3	-4.2%	8.6	-18.1	2.3
COc1cccc(/C(C)=N/Nc2ncc(Cl)cc2Cl)c1	-5.4	3.2%	1.8	-24.7	2.8

Screens (PubChem)
